Source: PubChem
HSD17B inh = blocks hydroxysteroid 17-beta dehydrogenase activity; Q99714; recombinant HSD17B10, NADH fluorescence kinetic; many of its hits are not listed in these tables; Potency, µM (doses to about 57.1 µM), without a hit: at the top dose activity change, negative = inhibition, hits mostly inhibitors; 7.6% of 75,000 active; AID 893; active = well fitted inhibition curve with a large enough effect; inconclusive = small, poorly fitted or top-dose-only effect; inactive = no such curve, though single readings can be large or run the other way;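 also: the protocol describes HADH2 (HSD17B10) and not the HSD17B4 of the title; nearly all actives have a fitted effect of over 70% in size; most hits overshoot -100% by far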
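Activity followed as NADH fluorescence increase (ex 360, em 450 nm) every 30 seconds for 4 min, using final 90 uM beta-hydroxybutyryl CoA and 1 mM NAD+. Recombinant His-tagged enzyme, 20 nM, pH 9.0 Tris buffer, 15 min compound preincubation.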
* = called active by the depositor; ? = inconclusive; & = joins results of further samples; [ ] = dose if it differs, or a comment. % is scaled to controls: 0 for no effect and ±100 for the full control effect; potency is read from the fitted curve at half-maximal effect. The list is partial; rates above refer to the full screens.

SMILES | HSD17B inh
Cc1oc2cc3c(C(=O)N4CCCCC4)c(C)oc3cc2c1C(=O)N1CCCCC1 | 1.6%
CCN(CC)C(=O)CN1CCN(c2ccccc2F)CC1 | -5.9%
COc1ccc(S(=O)(=O)Nc2cc(C)on2)cc1OC | 3.4%
CCOCCCN(C(=O)Nc1ccc(CC)cc1)C1CCN(C(C)=O)CC1 | -2.0%
CCCCn1c(C(C)NC(=O)CC)nc2ccccc21 (stereo not drawn) | 2.1%
CCOC(=O)Nc1cccc(OCC(=O)Nc2ccc(OC)cc2OC)c1 | -0.9%
O=S(=O)(c1ccccc1)N1CCN(c2nnnn2-c2ccccc2)CC1 | 7.7%
COc1ccc(C(=O)N2CCC3(CCCN(CC(C)C)C3)CC2)cc1 | -4.5%
O=C(O)c1sccc1S(=O)(=O)c1ccccc1 | -1.2%
O=C(NCCc1ccccc1)c1noc2c1CCCCC2 | 5.2%
Cc1cc(C)nc(NC(=O)c2cccc(Cl)c2)n1 | 6.3%
NC(=O)C1CCN(c2ncnc3c(-c4ccccc4)nsc23)CC1 | -7.3%
c1ccc(-n2ncc3c2ncn2cnnc32)cc1 | 31.6µM*
Cc1ccc(C(C(=O)NCc2ccco2)N(CC2CCCO2)C(=O)Cn2nnc3ccccc32)cc1 (stereo not drawn) | 8.7%
Cc1ccc(O)c(C(CC(=O)N2CCCC2)c2ccccc2)c1 (stereo not drawn) | 4.5%

Single entries from above.
Result of `CCCCn1c(C(C)NC(=O)CC)nc2ccccc21` (stereo not drawn) under HSD17B inh: 2.1%
Result of `Cc1oc2cc3c(C(=O)N4CCCCC4)c(C)oc3cc2c1C(=O)N1CCCCC1` under HSD17B inh: 1.6%

Next section:
SMILES | HSD17B inh
CN1C(=O)C2(NCCc3c2[nH]c2ccccc32)c2ccccc21 (stereo not drawn) | -7.5%
CCC/C(O)=C1\C(=O)CC(C)(C)CC1=Nc1ccccc1OC | 1.7%
COc1cc(NC(=O)Cc2ccc(Cl)cc2)ccc1NC(=O)c1ccco1 | 20µM*
CCOC(=O)C1=C(C)NC(C)=C(C(=O)OCC)C1c1nc2ccccc2[nH]1 | -29.1%
Cc1ccc(SCC(=O)N2CCCC2)cc1 | 0.7%
O=C(C[N+]1(c2ccccc2)CCOCC1)c1ccccc1 | 3.8%[11.4 µM]
CCOC(=O)N1CCN(C(=O)c2ccc(NC(=O)c3ccc(C)cc3)cc2)CC1 | 11.4%
CC(=O)OCC1OC(n2cnc3c(Cl)nc(Cl)nc32)C(OC(C)=O)C1OC(C)=O (stereo not drawn) | -1.8%
O=C(Cc1cccs1)Nc1nc(-c2ccccc2)cs1 | -28.1%
COc1ccc(OCCCSc2ncccn2)cc1 | -12.8%
O=C(CCN1C(=O)C2C3C=CC(C3)C2C1=O)NCC1CCCO1 (stereo not drawn) | 0.8%
Nc1nonc1/C(=N/O)N1CCCC1 | 2.0%
C#CCCCC(=S)Nc1ccccc1 | 10.2%
CCc1nnc(NC(=O)Cn2nc(-c3ccccc3OC)ccc2=O)s1 | 1.5%
O=C(Nc1ccccc1C(F)(F)F)c1ccc(F)c(S(=O)(=O)N2CCOCC2)c1 | 0.6%

Structures above that have a thiophene ring, fused or not:
SMILES | HSD17B inh
O=C(O)c1sccc1S(=O)(=O)c1ccccc1 | -1.2%
O=C(Cc1cccs1)Nc1nc(-c2ccccc2)cs1 | -28.1%

Retrieved one by one from the list above:
SMILES | HSD17B inh
Cc1ccc(SCC(=O)N2CCCC2)cc1 | 0.7%
COc1ccc(OCCCSc2ncccn2)cc1 | -12.8%
Nc1nonc1/C(=N/O)N1CCCC1 | 2.0%
C#CCCCC(=S)Nc1ccccc1 | 10.2%

New compounds follow
SMILES | HSD17B inh
N=c1ccn2c(n1)OC1C(O)C(CO)OC12 (stereo not drawn) | -5.2%&2.0%
COc1ccc(N2C(=O)C3CCCN3C2c2ccccc2)cc1Cl (stereo not drawn) | 3.0%
CNC[C@@H](SC)c1ccc(O)c(O)c1 | -1.2%[11.4 µM]
Cc1nn(C(C)C(=O)O)c2ccccc12 (stereo not drawn) | -2.8%
CC1CCc2c(C(=O)NCC3CCCO3)csc2C1 (stereo not drawn) | 2.2%
Cc1ccc2[nH]c(=O)c(CN(Cc3cccnc3)C(=O)c3ccncc3)cc2c1 | ?
CCOC(=O)c1nnc2cc(-c3ccc(Br)cc3)nn2c1C | -2.2%
CCCCC(=O)Nc1ccc(NC(=O)c2ccccc2OC)cn1 | -9.3%
Cc1cc2ncn(C3CC(=O)N(Cc4ccc(N5CCCC5=O)cc4)C3=O)c2cc1C (stereo not drawn) | ?
COC(=O)c1ccc(N2CCOCC2)c(NC(=O)Nc2cccc(OC)c2)c1 | ?
COc1cccc(-c2nc(CS(=O)(=O)CC(=O)NCCCOC(C)C)c(C)o2)c1 | -12.1%
CC(C(=O)NCc1ccc2c(c1)OCO2)N1c2cccc3cccc(c23)S1(=O)=O (stereo not drawn) | ?
Cc1cc(C)n(CCCNCC(O)c2ccccc2)n1 (stereo not drawn) | -1.8%
CC1CCN(C(=O)Cc2nn(C)c(=O)c3ccccc23)CC1 | 2.4%
CCC(C)c1ccccc1NC(=O)c1cccnc1 (stereo not drawn) | 0.7%
Cc1onc(-c2ccccc2Cl)c1C(=O)NCc1nc(-c2ccccc2)no1 | -11.5%
CCOC(=O)N1CCC(NC(=O)CN2C(=O)CSc3nc(C)cc(C)c32)CC1 | 9.0%
COc1ccc(C(C)C)cc1S(=O)(=O)NCc1ccccn1 | -3.9%
COc1ccc(C(=O)c2cnc(C(C)C)n2C)cc1 | -2.9%
Cc1cc(C(=O)Nc2cccc(C(=O)O)c2)oc1C | 7.8%
CC(NC(=O)c1ccncc1)C(c1cccs1)N1CCOCC1 (stereo not drawn) | 11.7%
CCOc1ccccc1NC1c2ccccc2C(=O)N1c1cccnc1 (stereo not drawn) | 7.9%
CO[C@@H]1/C=C\CC(=O)N2CCC[C@@H]2C(=O)OC[C@@H](C)C(=O)OC[C@H]1C | 2.5%[11.4 µM]
COCCn1c(SCC(=O)N(C(C)C)C(C)C)nnc1-c1cc2ccccc2cc1O | -10.5%
COc1cccc(-n2c(SCC(=O)N3CCCC3)nc3c([nH]c4ccccc43)c2=O)c1 | -6.6%
Cc1ccc2cc(CN(Cc3ccco3)S(=O)(=O)c3c(C)ccc4nsnc34)c(=O)[nH]c2c1 | -7.5%
CSc1nc2nc3c(c(=O)n2[nH]1)CN(Cc1ccccc1)CC3 | -2.9%
CCOc1ccc(OCC)c(NC(=O)CN(C)S(=O)(=O)c2cnc[nH]2)c1 | -2.1%
CC(C)CNC(=O)c1cc(-c2ccc(Br)cc2)on1 | 3.2%
COc1ccc(N)c(C)c1 | -1.6%
CCCCn1c(=S)[nH]c2ncccc2c1=O | -8.0%
CCOc1ccccc1NS(=O)(=O)c1c(C)noc1C | -7.0%
O=C(Cc1c(O)c2ccccc2[nH]c1=O)OC1CCCCC1 | 25.1µM*
CC(=O)Nc1nc(COc2ccccc2)cs1 | 3.6%
O=c1cc[nH]c2cccc(Cc3ccccc3)c12 | 7.9%
CCn1c(O)c(C=NCCN2CCOCC2)sc1=S | -5.6%
COc1cccc(C(=O)OCn2nnc3ccccc3c2=O)c1OC | ?
CC(C)(C)c1cc(NC(=O)COC(=O)C2CC2)n(-c2ccccc2)n1 | -3.9%
COCCN1C(=O)c2ccccc2C(C(=O)NCc2ccco2)C1c1c[nH]c2ccccc12 (stereo not drawn) | -17.4%
Cc1ccc(C(=O)Nc2c(C(=O)NCc3ccco3)cnn2-c2ccccc2)cc1 | 10.8%
Cc1ccc2c(c1)NC(=O)C(CC(=O)NCCCN1CCN(c3cc(Cl)ccc3C)CC1)O2 (stereo not drawn) | -11.4%
CNC(=O)C1CC(=O)N(c2ccc(C)cc2)C1 (stereo not drawn) | 2.3%
COc1ccccc1NC(=O)C1C2CCCCC21 (stereo not drawn) | 8.0%
CC1(C)NC(=O)N(c2ccccc2Cl)C1(C)NO (stereo not drawn) | 9.5%
CC(C)(C)OC(=O)N1CCNc2ccccc2C1 | 14.8%
O=C(CNCC1CCCO1)Nc1ccccc1N1CCOCC1 (stereo not drawn) | 19.9%
CC(Oc1ccc(Br)cc1)C(=O)N1CCc2ccccc21 (stereo not drawn) | 5.2%
CN(C)C(=O)Cn1c(SCC(=O)NC2CCCCC2)nc2ccccc21 | 8.7%
COc1cccc(NC(=O)CSc2ccccn2)c1 | 1.6%
COc1ccc(C(=O)n2c(-c3ccco3)nc3ccccc32)cc1 | 212.3%[activator]
CCc1nnc(NC(=O)CCC(=O)NCC2CCCO2)s1 (stereo not drawn) | 6.1%
O=C(NCc1ccccc1F)c1cccs1 | 3.7%
O=C1c2[nH]nc(-c3ccccc3O)c2C(c2cccc(Cl)c2)N1CC1CCCO1 (stereo not drawn) | -11.7%
COc1ccccc1N1CCN(Cc2cc(Br)c(O)c3ncccc23)CC1 | 1.7%
CC1CCN(CC[C@H]2CCCN2S(=O)(=O)c2cccc(O)c2)CC1 | 4.7%
Cc1ccc(CC(=O)Nc2nncs2)cc1 | 6.8%
O=C(CSCc1cnn(-c2ccccc2)c1-n1cccc1)NCC1CCCO1 (stereo not drawn) | 3.3%
O=C(CSc1nnc(CNC(=O)c2c(F)cccc2Cl)o1)NCc1ccc2c(c1)OCO2 | 2.0%
Cc1nc(CNS(=O)(=O)c2cc(F)ccc2F)cs1 | 1.7%
CCOC(=O)CC(=O)CSc1nnc2c(n1)[nH]c1ccccc12 | -18.8%

(cont.)
SMILES | HSD17B inh
CC(=O)OC[C@H]1O[C@@H](O/N=C(\C)CCN2CCCc3nc(C)c(C)cc32)[C@H](OC(C)=O)[C@@H](OC(C)=O)[C@H]1OC(C)=O | ?
COC(=O)NCC(c1cccnc1)N1CCN(c2ccccc2F)CC1 (stereo not drawn) | -11.5%
COc1ccc2[nH]cc(C(=O)CN3CCN(C/C=C/c4ccccc4)CC3)c2c1 | -4.5%
CCc1ccc(NC(=O)CSc2nc3cc(C(=O)OC)ccc3c(=O)n2Cc2ccco2)cc1 | -1.8%
O=C(NCCCN1CCCCC1)c1ccc2c(c1)NC(=O)C(N1CCCCC1)S2 (stereo not drawn) | -6.0%
COCCn1c(C)cc(C(=O)CSc2nnc(C)s2)c1C | -3.5%
COC1(OC)N=C(N)C2(C#N)C(c3ccc(C)cc3)C12C#N (stereo not drawn) | 8.9%
CCN1CCN(C(c2cc(OC)c(OC)c(OC)c2)c2nnnn2C(C)C)CC1 (stereo not drawn) | 9.9%
O=c1[nH]cnc2c1C1(CCCC1)Cc1ccccc1-2 | 1.8%
Cc1cc(C)cc(NS(=O)(=O)c2ccc3[nH]c(=O)[nH]c3c2)c1 | -1.5%
CC(C)CNC(=O)c1cc(-c2ccco2)on1 | -15.3%
Nc1nc(CN2CCN(Cc3ccc4c(c3)OCO4)CC2)nc(Nc2ccccc2)n1 | 2.9%
N#CN=C1CCCCCN1CC(N)=O | 6.5%
C=CCn1c(SCC(=O)N2CCN(C(=O)c3ccco3)CC2)nc2sc(CC)cc2c1=O | -7.5%
COc1ccc(CNC(=O)C2CSCCS2)cc1 (stereo not drawn) | -2.0%
O=S(=O)(NCCC1=CCCCC1)c1cccc(S(=O)(=O)N2CCOCC2)c1 | -7.2%
COc1ccc(CC(=O)OCc2nnc(C3COc4ccccc4O3)o2)cc1OC (stereo not drawn) | 13.9%
Cc1cccc(CNc2ncncc2-c2cccc(C#N)c2)c1 | -7.4%
COCC(=O)N1CCC2(CCCN(Cc3ccccc3OC)C2)CC1 | 1.0%
COc1ccc(CC(=O)N2CC(=O)N(CCc3ccccc3)C(=O)C2)cc1 | 11.8%
CCOC(=O)c1[nH]c(C)c(C(=O)Nc2cc(OC)ccc2OC)c1C | -3.3%
COc1ccc(-n2c(Cc3cccn3C)nnc2SCC(=O)Nc2nc(C)cs2)cc1 | 5.5%
CCN1C(=O)[C@H]2[C@H]3[C@H](O)[C@H](O)C/C(=N/OC/C=C(\C)CCC=C(C)C)[C@H]3CC[C@@H]2C1=O | -0.9%[11.4 µM]
CCOc1cc(C2NC(=O)N(C)C(C)=C2C(=O)OC)cc(Br)c1O (stereo not drawn) | -10.2%
C[N@@+]1(Cc2ccc(Cl)c(Cl)c2)CCC[C@@H]1c1ccc[n+](Cc2ccc(Cl)c(Cl)c2)c1 | 4.8%[11.4 µM]
CCn1cc(C(=O)NCc2ccc3c(c2)OCO3)c(=O)c2cc(S(=O)(=O)N3CCOCC3)ccc21 | -18.5%
COc1cc(C2C(C#N)=C(C)NC3=C2C(=O)c2ccccc23)cc(OC)c1OC (stereo not drawn) | 4.4%
CC(O)CNc1nc2c(c(=O)n(C)c(=O)n2C)n1Cc1cccc(Br)c1 (stereo not drawn) | 6.7%
CCOC(=O)N1CCC(Nc2c(-c3ccc(C)cc3)c(=O)c2=O)CC1 | -6.0%
O=C(NCc1ccco1)c1ccc(COCC(F)(F)F)cc1 | -4.3%
CCn1c(=O)cc(OCC(=O)Nc2ccccc2C#N)c2ccccc21 | -1.4%
Cc1ccc(S(=O)(=O)N2CCCN(S(=O)(=O)c3ccc(C)cc3)CC2)cc1 | -7.4%
CCOC(=O)N1CCN(S(=O)(=O)c2c(C)[nH]c(=O)[nH]c2=O)CC1 | 6.9%
CCOC(=O)N1CCC(NC(=O)C2CCCN2C(=O)OCc2ccccc2)CC1 (stereo not drawn) | 5.0%
O=C(CSc1nc2ccccc2[nH]1)N1CCN(c2ccccc2)CC1 | 0.9%
COc1cccc(C(=O)CSc2nnc(-c3ccco3)n2CC2CCCO2)c1 (stereo not drawn) | -0.9%

Ordered by formula weight (smallest number first): 3 of the compounds above
SMILES | HSD17B inh
CCOC(=O)C1=C(C)NC(C)=C(C(=O)OCC)C1c1nc2ccccc2[nH]1 | -29.1%
Cc1onc(-c2ccccc2Cl)c1C(=O)NCc1nc(-c2ccccc2)no1 | -11.5%
CCN1C(=O)[C@H]2[C@H]3[C@H](O)[C@H](O)C/C(=N/OC/C=C(\C)CCC=C(C)C)[C@H]3CC[C@@H]2C1=O | -0.9%[11.4 µM]
